From PubChem BioAssay
PINK1 modulator: A Quantitative High throughput Screen to Identify Chemical Modulators of PINK1 Expression | PINK1 immunofluorescence, high-content cytometry, 24 h | Potency, µM (titrated, usually from 76.6 µM), for inactives: at the highest dose activation (PINK1 increase), most hits filed as activators | 410,000 compounds, 0.2% hits | AID 624263, 2012; active = well fitted activation curve with a large enough effect; inconclusive = small, poorly fitted or top-dose-only effect; inactive = flat fitted curve, though single readings scatter; cell line not stated here;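 note: potency is the fitted concentration of half-maximal effect; % of control where 0% means no effect; nearly all actives have a fitted effect of over 65% in size; a mitochondrial uncoupler was the plate control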
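Stable cell line, 250 cells/well, 12 h attachment; compounds pinned at 5 concentrations, 24 h; CCCP control. Fixed with nuclear dye, primary antibodies 12 h at 10 degrees C, secondary plus cell stain; laser-scanning cytometer read.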
TRPML1 agonist: qHTS for Agonists of the Human Mucolipin Transient Receptor Potential 1 (TRPML1). AID 624414, 2012. TRPML1-expressing cells, Ca2+ dye fluorescence, FDSS; host cell line not named in the record; reference of the full effect not given here. 410,000 compounds, 0.12% hits. activation, % (test concentration not listed). Mucolipin-1 (Homo sapiens), Q9GZU1; in the data active = activation above about 50%; inconclusive = about 30% to 50%; inactive = below about 30%; note: 0% is about no effect; the text of the record puts the active cut at 80%
Target sequence (Q9GZU1 whole entry, looked up): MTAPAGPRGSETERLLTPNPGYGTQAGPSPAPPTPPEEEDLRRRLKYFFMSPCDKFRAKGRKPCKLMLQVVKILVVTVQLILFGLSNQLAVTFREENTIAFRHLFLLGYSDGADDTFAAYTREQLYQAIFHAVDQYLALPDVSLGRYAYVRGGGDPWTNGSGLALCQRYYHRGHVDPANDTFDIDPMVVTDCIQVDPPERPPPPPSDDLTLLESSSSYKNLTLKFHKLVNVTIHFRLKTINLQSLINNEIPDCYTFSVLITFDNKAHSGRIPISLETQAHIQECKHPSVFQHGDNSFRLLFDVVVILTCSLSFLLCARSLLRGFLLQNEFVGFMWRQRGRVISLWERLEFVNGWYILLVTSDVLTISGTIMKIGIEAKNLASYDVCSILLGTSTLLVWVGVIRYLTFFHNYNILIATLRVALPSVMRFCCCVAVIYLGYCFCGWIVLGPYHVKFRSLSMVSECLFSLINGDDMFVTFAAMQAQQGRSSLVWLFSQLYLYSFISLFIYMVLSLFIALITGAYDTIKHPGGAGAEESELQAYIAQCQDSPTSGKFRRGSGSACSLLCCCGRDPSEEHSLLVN
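Kinetic FDSS Ca2+ read in Tet-induced TRPML1-DL cells (ABD Ca8 dye plus quencher, 45-90 min RT loading): baseline, then compound, then 110 s agonist window; EC80 agonist 54-4 at 4uM final added afterwards for a 110 s antagonist window.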
D2 ag: Beta-Arrestin HTS for Positive Allosteric Modulators of the Human D2 Dopamine Receptor: Agonists; activation, % (test concentration not listed); 360,000 compounds, 0.084% hits; D(2) dopamine receptor (Homo sapiens), P14416; DiscoveRx PathHunter D2 beta-arrestin, luminescence, 90 min; 100% = 57 uM dopamine signal; AID 624465, 2012; in the data active = activation above about 40%; inconclusive = about 15% to 40%; inactive = below about 15%; note: compound concentration not given in the record; the text of the record calls up to 30% inactive
Target sequence (P14416 whole entry, looked up): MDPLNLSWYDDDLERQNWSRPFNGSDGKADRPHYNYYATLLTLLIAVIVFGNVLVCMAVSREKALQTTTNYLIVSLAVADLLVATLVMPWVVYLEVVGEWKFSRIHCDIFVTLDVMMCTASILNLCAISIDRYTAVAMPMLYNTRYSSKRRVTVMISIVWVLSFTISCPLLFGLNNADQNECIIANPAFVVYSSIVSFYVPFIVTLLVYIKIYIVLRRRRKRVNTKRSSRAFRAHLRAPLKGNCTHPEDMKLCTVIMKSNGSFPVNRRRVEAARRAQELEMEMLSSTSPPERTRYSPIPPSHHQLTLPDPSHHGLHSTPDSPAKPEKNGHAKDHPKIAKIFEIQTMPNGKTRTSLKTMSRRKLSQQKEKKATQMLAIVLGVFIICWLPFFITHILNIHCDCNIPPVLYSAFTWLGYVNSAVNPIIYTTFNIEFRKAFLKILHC
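Agonist mode: compounds alone added to overnight-plated D2 PathHunter cells for 90 min at 37 C, with 57 uM final dopamine (EC100) defining full response. Beta-arrestin recruitment detected by chemiluminescent reagent, read after 1 h at ambient temperature.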
D2 PAM: Beta-Arrestin HTS for Positive Allosteric Modulators of the Human D2 Dopamine Receptor: Potentiators; DiscoveRx D2 beta-arrestin cells, luminescence, 90 min; 100% = 57 uM dopamine signal; potentiation, % (no concentration beside the values); 360,000 compounds, 0.23% hits; active = potentiation of 50% or more; inconclusive = 30% to 50%; inactive = 30% or less;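 note: compound concentration not given in the record; tested on top of an EC20 dose of dopamine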
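PathHunter beta-arrestin assay in DiscoveRx D2 cells. Compounds were added with an EC20 of dopamine (50 nM final) for 90 min at 37 deg C. Luminescence was read 1 h after detection reagent, with 57 uM dopamine as the EC100 control.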
CtBP-E1A blk: qHTS Assay for Inhibitors of the CtBP/E1A Interaction | activity change, % (no concentration beside the values) | CtBP / adenovirus E1A interaction (AlphaScreen) | 340,000 compounds, 0.49% hits | AlphaScreen GST-E1A/His-CtBP binding, 1536-well; active compounds read low; control for the full effect not named in the record; in the data active means activity change below about -65%; inconclusive means about -30% to -65%; inactive means above about -30%; note: % is set by controls: 0 for no effect and ±100 for the full control effect
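GST-E1A and His-tagged CtBP (125 nM each as 5X stock) were preincubated with pin-transferred compound for 2 h at 37 °C in the dark, then glutathione donor and nickel acceptor beads were added for 1 h before AlphaScreen reading.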
Six1-Eya2 blk: qHTS Assay for Inhibitors of the Six1/Eya2 Interaction. Homeobox protein SIX1 (Homo sapiens) + Protein phosphatase EYA2 (Homo sapiens), …. AlphaScreen GST-Six1/His-Eya2 binding, biochemical; active compounds read low; control for the full effect not named in the record. activity change, % (concentration not given with the values). 360,000 compounds, 0.56% hits. AID 651725, 2012; in the data active = activity change below about -65%; inconclusive = about -30% to -65%; inactive = above about -30%; note: % is set by controls: 0 for no effect and ±100 for the full control effect
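AlphaScreen with GST-Six1 and His-Eya2 (5X mix: 250 nM and 500 nM), glutathione donor and nickel acceptor beads; buffer 50 mM Tris pH 8.0, 300 mM NaCl, 1 mM TCEP; 1 h at 37 C in the dark.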
* = called active by the depositor; ? = inconclusive; · = no result given; [ ] = another dose, or the depositor's remark.

Screens in order: PINK1 modulator, TRPML1 agonist, D2 ag, D2 PAM, CtBP-E1A blk, Six1-Eya2 blk
> CCCCOc1ccc(C2(C)CC(=O)NC2=O)cc1 (stereo not given)
    5.1%, 0.5, 0.6, -2, 0, 19
> Cc1cc(NC(=O)c2cnn3c(C(F)F)cc(C4CC4)nc23)no1
    5.1%, 0.5, -0.6, -14, -4, 7
> CCc1c(O)c(/C(C)=N\O)c(=O)n(-c2ccccc2)c1-c1ccccc1
    -1.5%, 1.7, -1.8, 18, -4, 3
> O=C(O)CCNC(=O)/C(=C\c1ccco1)NC(=O)c1ccco1
    2.2%, ·, -0.4, 4, ·, -2
> Cc1ccc(Nc2c(-c3ccc(C)o3)nc3ncccn23)cc1
    -0.6%, -0.4, 8.1, 5, -1, -2
> CCOc1ccccc1C1C(C#N)=C(SCC(=O)OC)NC(=O)C1C(=O)OC (stereo not given)
    ·, 0.6, 0.6, -7, -3, -2
> COc1ccc(NC(=O)CCCN2C(=O)CN(C)C2=O)c(OC)c1
    9.3%, -0.4, -4.8, -9, ·, -15
> CCOC(=O)c1cnc(N)nc1-c1ccccc1
    2.1%, 0.1, -3.7, -1, 1, -3
> COC(=O)c1nn(-c2nc(-c3cccc(OC)c3)cc(C(F)(F)F)n2)cc1[N+](=O)[O-]
    8.5%, -0.3, -2.3, 3, -7, 6
> O=C(O)c1ccccc1C(=O)N1CCN(C(=O)c2ccccc2Cl)CC1
    -0.6%, 1.7, 2.8, -9, 10, 0
> CCC(CO)Oc1cc(NC(=O)c2ccc(Cl)cc2)c2ncn(C(C)C)c2c1 (stereo not given)
    4.2%, 0.4, -5.0, -2, -5, 11
> O=C(Nc1c(C(=O)Nc2ccc3c(c2)OCCO3)cnn1-c1ccccc1Cl)c1ccco1
    0.5%[38.3 µM], -0.8, -2.3, -15, 1, -1
> COc1ccc([N+](=O)[O-])cc1NC(=O)CSCc1ccc(Br)cc1
    4.3%, 1.2, -3.7, -15, ?, -22
> CC(=O)Nc1cccc(-c2cc(NC=O)c3ncc(-c4ccc(F)c(Cl)c4)n3c2)c1
    0.9%, -0.5, 4.4, -1, 7, 10
> CC(=O)N(CC#CCN(C(C)=O)c1ccccc1)c1ccccc1
    0.2%, -0.3, -1.5, -16, 0, 15
> Cc1ccc(C(=O)NCCNC(=O)COc2ccc(C)c(C)c2)cn1
    1.2%, 0.3, -1.7, 1, -1, -1
> NC(=O)c1nn(-c2ccccc2)nc1NC(=O)CSc1nnnn1-c1ccc(Cl)cc1
    7.6%, 1.0, -5.4, -5, -12, 1
> CCOc1cc(C2NC(=S)NC(C)=C2C(=O)Nc2ccc(OC)cc2)ccc1O (stereo not given)
    0.6%, -0.2, -3.2, 0, 19, 14
> O=S(=O)(Cc1noc(-c2ccccc2Cl)n1)c1ccccn1
    -0.3%, 0.4, -3.3, 0, 0, 19
> CCc1cccc(NC(=O)c2cnn(-c3ccccc3)c2C)c1
    -0.6%, 2.3, -2.7, -3, 0, 5
> C=CCn1c(=N)n(CC(O)COc2ccc(OC)cc2)c2ccccc21 (stereo not given)
    -1.3%, -1.4, -4.5, 3, -3, 0
> Cn1c(CCC(=O)Nc2ccc(S(C)(=O)=O)cc2)nc2cc(S(=O)(=O)N3CCOCC3)ccc21
    2.2%, 0.1, -1.0, -1, 0, 10
> CCn1cc(C(=O)OCC(=O)Nc2cccc(S(=O)(=O)N3CCOCC3)c2)c(=O)c2ccc(C)nc21
    5.5%[38.3 µM], 2.5, -5.0, -13, -9, -7
> CN(C)c1nc(C(=O)NN)nc(N(C)C)n1
    -1.0%[38.3 µM], -0.5, -1.8, -13, 6, 0
> CN1CCCN(S(=O)(=O)c2ccccc2)c2nc3ccccc3nc21
    0.5%, 2.8, -7.3, 17, -19, 45
> O=C(c1c(F)cccc1F)N1CCCC(c2nc(-c3cccs3)no2)C1 (stereo not given)
    -1.2%, 1.3, -4.8, -6, 0, 0
> O=C(O)C1CCC(N2C(=O)C3C4CCC(C4)C3C2=O)CC1 (stereo not given)
    -0.7%, 0.4, -4.3, -11, 6, 1
> COc1ccc(NC(=O)CCc2c(C)nc3nc(C)nn3c2C)cc1
    -2.5%, 0.0, -2.3, 13, -4, -2
> CC(=O)Nc1ccc(S(=O)(=O)NCCc2cc3ccc(C)c(C)c3[nH]c2=O)cc1
    -0.5%, 0.4, -2.7, -11, 4, -4
> O=C(Nc1ccc(F)c(Cl)c1)C1CCN(S(=O)(=O)c2cccnc2)CC1
    -0.1%, -0.8, 2.1, -5, 3, -6
> CC(=O)c1c(C)nc(-c2ccccc2)nc1NC(=O)Cc1ccccc1
    0.4%, 3.6, -4.7, -11, -11, 8
> COC(=O)c1[nH]c2ccc(C)cc2c1NC(=O)c1ccccc1[N+](=O)[O-]
    23%, 0.5, 1.4, 6, 4, 6
> COCCn1c(SCC(=O)Nc2nc3ccccc3s2)nnc1-c1ccoc1C
    -1.7%, 2.5, -2.3, -14, 0, -5
> CCCN(CC(=O)Nc1ccccc1C)C(=O)C1CCCN(C(=O)c2ccc(Cl)cc2)C1 (stereo not given)
    0.0%, -1.3, -1.1, 13, ·, 3
> Cc1ccc(Cc2c(-c3ccc(C#N)cc3)nc3ccc(Cl)cn23)cc1
    5.5%, 0.8, -7.1, -5, 7, 8
> COc1ccc(OC)c(-c2csc(CCn3nc(C)cc3C)n2)c1
    -0.6%, 0.7, -18, -9, 7, 0
> Cc1ccc(C)c(Nc2ccc(C(=O)NCCc3ccccc3)cn2)c1
    0.3%, 1.6, -2.1, -24, -3, 2
> CC1CC(C)CN(S(=O)(=O)c2ccc(Cl)cc2)C1 (stereo not given)
    1.4%, 0.1, -4.9, -7, 17, 18
> CC(C)(C)c1nc(SCC(=O)NC2CCCC2)c2ccccc2n1
    5.4%, 0.1, 0.9, -5, 4, 14
> COc1ccc(Cn2c(-c3ccccc3)nc3c(c(=O)c4ccccc4n3C)c2=O)cc1
    8.2%, -0.7, -0.9, -2, -1, -9
> O=S(=O)(c1cccc2nonc12)N1CCN(c2ccc(F)cc2)CC1
    1.1%, -0.4, -5.4, -2, -25, -3
> COc1cccc(Nc2ncnc3c2cnn3-c2cccc(C)c2)c1
    -0.6%[38.3 µM], 0.1, -1.4, -3, -9, -2
> CCOC(=O)N1CCC(NC(=O)c2ccc(CO)c(C(=O)NC3CCN(C(=O)OCC)CC3)c2)CC1
    0.0%, 0.0, 6.0, -2, ·, -1
> CCCn1c(C2CCCN2c2nc(-c3ccc(C)cc3)cs2)nc2cc(Cl)c(N3CCCCC3)cc21 (stereo not given)
    5.5%, -0.5, -1.5, -9, -6, -9
> CCOC(=O)c1sc(NNC(=O)c2ccc(C)cc2)nc1C
    0.3%, 0.1, 2.5, -1, 0, 2
> Cc1ccccc1NC(=O)C1Cc2ccccc2CN1C(=O)OCc1ccccc1 (stereo not given)
    -1.0%, 1.7, -4.5, -5, 1, 22
> Cc1c(N2C(=O)c3cccc4cccc(c34)C2=O)c(=O)n(-c2ccccc2)n1C
    1.2%, -0.2, -4.2, 8, 3, 6
> COc1ccc(C(=O)Nc2ccc(C)cc2C(=O)c2ccccc2)c(OC)c1
    3.8%, 3.0, -3.1, -9, -19, -2
> CC(=O)c1ccc(NC(=O)CN2C(=O)/C(=C/C(C)=C/c3ccccc3)SC2=S)cc1
    0.1%, -0.3, -3.6, -5, -4, -9
> CN(CC(=O)Nc1cc(Cl)ccc1-n1cncn1)Cc1ccccc1N1CCOCC1
    0.8%, 0.5, 2.4, 5, 30, 0
> O=C(N/N=C/c1ccc2c(c1)OCO2)c1cc(-c2ccncc2)nc2ccccc12
    4.2%, 2.4, 4.9, 8, -12, ?
> O=S1(=O)c2c(Oc3cccc4ccccc34)cccc2OC(COCc2ccccc2)CN1C1CCCC1 (stereo not given)
    0.3%, -0.1, -6.0, -8, -10, -1
> Cc1ccccc1NC(=O)CCN1CCN(Cc2ccccc2)CC1
    -4.8%, -0.4, -4.2, -16, 0, -2
> Nc1nc(-c2ccccc2)c(CCCOc2ccc(NC(=O)CBr)cc2)c(=O)[nH]1
    -0.7%, 0.6, -0.4, -4, 3, -4
> CCOc1ccc(C(C(=O)NC2CCCC2)N(C(=O)c2snc(C(N)=O)c2N)c2cccc(O)c2)cc1 (stereo not given)
    -0.4%, -0.5, 7.1, 11, 0, 1
> CC1(c2nnnn2Cc2ccccc2)CCC(=O)N1CCc1c[nH]c2ccccc12 (stereo not given)
    0.6%, 1.9, ·, ·, 5, -4
> COc1ccc(CCNC(=O)CSc2ccccn2)cc1
    -0.9%, -0.2, 0.1, -1, -1, 4
> CCCOc1ccccc1NC(=O)Nc1ccccc1Cl
    4.2%, -0.5, 2.5, 3, 7, 8
> COc1ccc(CNC(=O)C2CCCN(S(=O)(=O)c3c(C)n[nH]c3C)C2)cc1 (stereo not given)
    ·, 0.4, 0.1, -4, -8, -8
> CCOC(=O)C1CCCN(S(=O)(=O)c2c(C)[nH]c(C)c2C(=O)N2CCCC2)C1 (stereo not given)
    -1.3%, -0.1, 0.8, 1, 2, 2
> CCCC(=O)Oc1c(S(=O)(=O)c2ccc(C)cc2)c(C)nn1C(C)(C)C
    3.7%, ·, 1.1, -3, 9, 18
> O=c1c(NCCc2ccc(Cl)cc2)c(-c2ccccc2)c1=O
    -0.4%, -0.2, -4.0, -24, -6, 2

An excerpt from above in order of the Six1-Eya2 blk value, high to low:
| Compound | PINK1 modulator | D2 ag | D2 PAM | CtBP-E1A blk | Six1-Eya2 blk |
| --- | --- | --- | --- | --- | --- |
| CCCC(=O)Oc1c(S(=O)(=O)c2ccc(C)cc2)c(C)nn1C(C)(C)C | 3.7% | 1.1 | -3 | 9 | 18 |
| CCOC(=O)C1CCCN(S(=O)(=O)c2c(C)[nH]c(C)c2C(=O)N2CCCC2)C1 (stereo not given) | -1.3% | 0.8 | 1 | 2 | 2 |
| O=S1(=O)c2c(Oc3cccc4ccccc34)cccc2OC(COCc2ccccc2)CN1C1CCCC1 (stereo not given) | 0.3% | -6.0 | -8 | -10 | -1 |
